# Sfp PPTase inh: qHTS Assay for Inhibitors of Bacillus subtilis Sfp phosphopantetheinyl transferase (PPTase) | Biochemical Sfp PPTase activity, qHTS | 3.5% of 310,000 active | Potency, µM, for inactives: max response, negative = inhibition, hits mostly inhibitors | AID 1490, 2009 | 4'-phosphopantetheinyl transferase ffp (Bacillus subtilis), Q9F4F7; active = well fitted inhibition curve with a large enough effect; inconclusive = small, poorly fitted or top-dose-only effect, or another doubt; inactive = no such curve, though single readings can be large or run the other way;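 note: the enzyme is Sfp with the accession as filed and its product quenches rhodamine fluorescence; potency is the fitted concentration of half-maximal effect; 0% = enzyme reaction without inhibitor and -100% = no enzyme wells; top concentration of the series not given in the record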
#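 After 15 min at room temperature with compound, 15 nM Sfp received 5 uM rhodamine-CoA plus 12.5 uM BHQ-2-ybbR (50 mM Hepes pH 7.6, 10 mM MgCl2). Rate came from the fluorescence difference over 30 min, ex 525/em 598 nm.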
# D2 ag: Beta-Arrestin HTS for Positive Allosteric Modulators of the Human D2 Dopamine Receptor: Agonists; 0.084% of 360,000 active; activation, % (test concentration not listed); DiscoveRx PathHunter D2 beta-arrestin, luminescence, 90 min; 100% = 57 uM dopamine signal; D(2) dopamine receptor (Homo sapiens), P14416; in the data active = activation above about 40%; inconclusive = about 15% to 40%; inactive = below about 15%; note: compound concentration not given in the record; the text of the record calls up to 30% inactive
# Target sequence (P14416 whole entry, looked up): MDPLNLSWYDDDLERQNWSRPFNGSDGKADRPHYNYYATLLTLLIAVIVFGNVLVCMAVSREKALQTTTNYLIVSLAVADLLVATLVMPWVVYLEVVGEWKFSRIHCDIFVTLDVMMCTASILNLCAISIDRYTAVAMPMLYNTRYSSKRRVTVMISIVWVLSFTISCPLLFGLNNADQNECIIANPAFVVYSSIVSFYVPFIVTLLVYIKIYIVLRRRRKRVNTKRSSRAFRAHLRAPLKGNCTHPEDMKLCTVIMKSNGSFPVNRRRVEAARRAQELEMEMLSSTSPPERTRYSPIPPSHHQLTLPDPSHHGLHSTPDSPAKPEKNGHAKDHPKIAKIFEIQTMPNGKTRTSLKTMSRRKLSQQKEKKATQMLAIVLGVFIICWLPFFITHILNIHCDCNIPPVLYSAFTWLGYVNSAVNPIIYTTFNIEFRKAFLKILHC
#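 DiscoveRx PathHunter D2 beta-arrestin cells (2,100/well) attached overnight, then compound-stimulated 90 min at 37 C in HBSS/10 mM HEPES/0.1% Tween-20 buffer; beta-galactosidase complementation read by luminescence after 1 h at ambient temperature. Dopamine 57 uM final (EC100) as control.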
# gsp agonist: qHTS for Agonist of gsp, the Etiologic Mutation Responsible for Fibrous Dysplasia/McCune-Albright Syndrome: qHTS; gsp mutant cells, cAMP HTRF, 30 min; control for the full effect not named in the record; Potency, µM (top dose mostly 76.9 µM), inactives show at the highest dose activation (cAMP increase), hits mostly activators; 0.13% of 340,000 active; active = well fitted activation curve with a large enough effect; inconclusive = small, poorly fitted or top-dose-only effect, or another doubt; inactive = no such curve, though single readings can be large or run the other way; cell line not stated here;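 note: phosphodiesterase inhibitor Ro 20-1724 added with compounds to block cAMP breakdown; potency is the fitted concentration of half-maximal effect; nearly all actives have a fitted effect of over 60% in size; about a fifth of the inactives were tested at one dose only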
#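 Cells in DMEM/10% FBS with G418 were pretreated with compounds in DMSO plus […] (300 uM stock) for 30 min at 37C. cAMP was measured by HTRF (cAMP-d2 plus anti-cAMP antibody-K) after 30 min at room temperature.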
# gsp antagonist: qHTS for Antagonists of gsp, the Etiologic Mutation Responsible for Fibrous Dysplasia/McCune-Albright Syndrome: qHTS | Potency, µM (top dose mostly 76.9 µM), inactives show at the highest dose activity change, negative = inhibition, hits mostly inhibitors | 0.4% of 340,000 active | AID 624288, 2012 | gsp-mutant cells, cAMP HTRF, 30 min; control for the full effect not named in the record; active = falling curve of any shape with a large fitted effect; inconclusive = falling curve, mostly with a smaller effect; inactive = flat or rising curve; cell line not stated here;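 note: intracellular cAMP measured with PDE inhibitor Ro 20-1724 present during compound exposure; potency is the fitted concentration of half-maximal effect; % is set by controls: 0 for no effect and ±100 for the full control effect; nearly all actives have a fitted effect of over 65% in size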
#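 G418-selected cells were plated in DMEM/10% FBS for 16-24 h at 37C, then treated with compounds plus the PDE inhibitor […] (300 uM solution added) for 30 min at 37C. Intracellular cAMP was measured by HTRF after 30 min lysis at room temperature.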
# Menin-MLL FL inh: qHTS Assay for Inhibitors Targeting the Menin-MLL Interaction in MLL Related Leukemias: Competition With Fluorescein Labeled MLL-derived Peptide; Fluorescence polarization, fluorescein-MLL peptide displacement from menin; 290,000 tested, under 10 active; FP activity change, % at 61.4 µM; inconclusive = falling polarisation curve, or a change in total fluorescence; inactive = total fluorescence flat and polarisation flat or rising; no compound was filed as active; the % refers to the polarisation; negative = inhibition;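 note: % of control where 0% means no effect; inhibitors lower the polarisation; unlabelled MLL peptide was the positive control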
# ClpP mod: qHTS Assay for Activators of ClpP. purified B. subtilis ClpP, FRET peptide cleavage, 20 min. Potency, µM (series often up to 57.5 µM), inactives show at the highest dose activity change, negative = active. 1.9% of 340,000 active. AID 651965, 2013; active = well fitted falling curve with a large enough effect; inconclusive = small, poorly fitted or top-dose-only effect; inactive = no such curve, though single readings can be large or run the other way; note: potency is the fitted concentration of half-maximal effect; the source files actives as falling curves though it sought activators and does not explain the sign; nearly all actives have a fitted effect of over 65% in size; many hits overshoot -100%
# Target sequence (P80244 whole entry, looked up): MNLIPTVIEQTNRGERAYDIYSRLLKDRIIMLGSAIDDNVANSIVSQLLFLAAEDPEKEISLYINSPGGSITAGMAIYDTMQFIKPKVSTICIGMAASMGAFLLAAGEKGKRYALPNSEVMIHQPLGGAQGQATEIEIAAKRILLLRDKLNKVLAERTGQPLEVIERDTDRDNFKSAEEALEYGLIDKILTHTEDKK
#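 Buffer: 100 mM Tris/HCl pH8, 100 mM KCl, 0.05% low protease BSA, 2.5% glycerol, 0.01% Tween-20. ClpP 10 microg/mL final; 20 min RT; delta FRET normalized to ADEP and DMSO controls.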
# PINK1 modulator: A Quantitative High throughput Screen to Identify Chemical Modulators of PINK1 Expression; PINK1 immunofluorescence, high-content cytometry, 24 h; Potency, µM (titrated, usually from 76.6 µM), inactives show at the top dose activation (PINK1 increase), hits mostly activators; 0.2% of 410,000 active; active = well fitted activation curve with a large enough effect; inconclusive = small, poorly fitted or top-dose-only effect; inactive = flat fitted curve, though single readings scatter; cell line not stated here;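 note: potency is the fitted concentration of half-maximal effect; % of control where 0% means no effect; nearly all actives have a fitted effect of over 65% in size; a mitochondrial uncoupler was the plate control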
#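 A stable cell line was treated with compounds at 5 concentrations for 24 hours, with CCCP as control. PINK1 levels and mitochondrial localization were measured by immunofluorescence with mitochondrial, cell and nuclear markers after fixation, read by laser-scanning cytometry.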
# An asterisk follows results filed as active; ? = inconclusive; nt = no result given; & = joins results of further samples; [ ] = remark or other dose.
# Each structure is followed by: Sfp PPTase inh	D2 ag	gsp agonist	gsp antagonist	Menin-MLL FL inh	ClpP mod	PINK1 modulator
COc1ccc(C(=O)c2c3ccccc3[n+]([O-])n2CCCN)cc1
 : nt	0.1&-0.2	-14.5%	0.1%&1.0%	nt	0.3%&-9.1%	-0.8%&0.9%
CC(=O)c1ccc(OCCCC(=O)OCC(=O)Nc2c(C)nn(-c3ccccc3)c2C)cc1
 : nt	-1.7	?	-9.9%	nt	0.7%	-1.0%
Cc1ccccc1OCC(=O)O/N=C(\N)c1ccncc1
 : -12.7%	4.2	2.1%	8.1%	1.9	nt	-1.2%
O=C(Nc1ccc2nc3n(c(=O)c2c1)CCCCC3)c1ccccn1
 : -16.9%	-0.4	8.8%	-20.4%	5.2	0.3%	0.7%
CCOC(=O)Nc1ccc2c(COC(=O)C(NS(=O)(=O)c3ccc(Cl)cc3)C(C)O)cc(=O)oc2c1 (stereo unspecified)
 : nt	1.3	3.5%[15.4 µM]	-9.6%	nt	0.2%	3.3%
COc1ccc(NC(=O)NCCC2=CCCCC2)cc1
 : 18.5%	-1.9	-28.1%	18.8%	6.5	0.9%	3.1%
CC1Sc2ccc(S(=O)(=O)CCC(=O)N(C)Cc3ccccc3)cc2NC1=O (stereo unspecified)
 : 27.4%	-1.7	?	-12.1%	-0.1	-0.6%	-0.9%
CCCCc1ccc(NC(=O)Nc2cnccn2)cc1
 : 11.9%	4.6	?	8.6%	0.1	-7.6%	3.5%
O=c1c(-c2cc(F)cc(F)c2)nc2cnc(N3CCNCC3)nc2n1CCc1ccccc1
 : ?	nt	nt	nt	0.6	nt	3.1%
Cc1ccc2c(Cl)cc(Cl)c(OCC(=O)OCC(=O)Nc3ccc(C#N)cc3)c2n1
 : 3.9%	-3.1	-1.5%[15.4 µM]	6.6%	0.0	1.0%	-0.6%
O=[N+]([O-])c1ccc(N2CCN(CCOc3nonc3-c3ccccc3)CC2)c(Cl)c1
 : -0.9%	-2.7	?	1.8%	-8.7	-7.9%	nt
COc1ccc(C(=O)N/C(=C\c2ccc3c(c2)OCO3)C(=O)NCCc2nc3ccccc3[nH]2)cc1
 : 8.7%	-3.6	6.3%	-7.4%	4.1	?	-0.5%
Cn1ncc(N=Cc2c(O)ccc3ccccc23)c1C(=O)N1CCOCC1
 : nt	-0.3	3.9%	-10.5%	nt	1.3%	-1.2%
COc1cccc(-c2cccc3c2NC(=O)C3(C)Cc2ccccc2F)c1 (stereo unspecified)
 : nt	-3.8	nt	nt	nt	-0.9%	0.3%
Cc1c(C(=O)N2CCOCC2)[nH]c2c1C(=O)CC(c1ccc(Cl)cc1)C2 (stereo unspecified)
 : 0.0%	1.7	14.4%	-10.6%	-4.4	-5.8%	5.7%
O=C(NNC(=O)C12CC3CC(CC(C3)C1)C2)c1ccco1
 : -15.9%	-3.0	2.9%	7.1%	-0.2	nt	2.1%
O=C(O)c1cc(-c2cccnc2)nc2ccc(Br)cc12
 : 12.6%	-4.1	?	2.3%	1.1	-1.4%	0.9%
CC(C)c1ccc(CNC(=O)C2(C)CCCN2C)cc1 (stereo unspecified)
 : nt	-2.7	nt	nt	nt	-0.2%	4.0%
Cc1ccc(C(=O)Nc2nc3c(s2)CCCC3)o1
 : -9.8%	1.2	7.5%	2.0%	0.9	-1.0%	-0.4%
Nc1nonc1-n1nnc(C(=O)N/N=C/c2ccc(OCc3ccccc3)cc2)c1CNc1ccccc1
 : 23.2%	9.9	13.5%	3.3%	nt	1.2%	4.3%
COc1cc(OC)cc(C(=O)NNC(=O)C(=O)Nc2cc(OC)c(Cl)cc2OC)c1
 : 22.9%	4.5	-8.2%	0.0%	-5.4	0.5%	-0.6%
CCC(=N\NC(=O)COc1ccccc1OC)/C(CC)=N/NC(=O)COc1ccccc1OC
 : nt	-0.7	-2.9%	0.2%	nt	0.0%	1.1%
C=CCOc1ccc(CN(C)CC(=O)N(CC(C)C)c2c(N)n(CC(C)C)c(=O)[nH]c2=O)cc1
 : -9.2%	-0.3	1.9%	9.1%	3.7	-9.9%	-1.9%
Cc1ccc(C)c2[nH]c(=O)c(CN(Cc3nnnn3C3CCCCC3)CC3CCCO3)cc12 (stereo unspecified)
 : 79.4µM*	-0.6	-25.6%	-20.5%	-4.7	-25.6%	?
CCOC(=O)C1(C)CCCN(C(=O)c2cc(F)ccc2C)C1 (stereo unspecified)
 : nt	-4.5	nt	nt	nt	0.8%	2.1%
COc1cccc(-c2cc(C(F)(F)F)nc(NCc3ccco3)n2)c1
 : 1.4%	-3.9	-6.5%	-10.4%	3.4	-23.8%	12.3%
CCc1cc2c(SCC(=O)Nc3ccc(NC(C)=O)cc3)ncnc2s1
 : nt	-2.4	2.8%	-2.1%	nt	0.4%	14.0%
CC1(C)Cc2nc3scc(NC(=O)c4ccccc4)c3cc2CO1
 : 14.3%	-0.1	-6.9%	-12.7%	3.8	-1.1%	1.8%
Cc1nnc(SCC(=O)N(C)CC(=O)Nc2ccccc2Cl)s1
 : nt	1.7	-15.0%[15.4 µM]	5.3%	nt	nt	-1.3%
COc1ccc(/C=N/NC(=O)C2C3CCCCC32)cc1OC (stereo unspecified)
 : 14.0%	0.3	4.7%[15.4 µM]	6.6%	-1.7	-24.7%	1.0%
O=C(C[n+]1cc(-c2ccc(Cl)cc2)n2c1CCC2)Nc1nc(-c2ccc(F)cc2)cs1
 : 44.7µM*	-4.4	-8.7%	4.4%	4.8	0.8%	3.3%
Cc1ccc(NC(=O)C2CC(=O)N(C(C)C)C2)cc1Cl (stereo unspecified)
 : 0.2%	-6.0	-14.4%	1.0%	0.8	0.8%	1.1%
O=C(O)CSCC(=O)Nc1ccccc1
 : nt	-1.0	-34.7%[inhibitor]	20.4%	nt	-4.4%	0.4%[38.3 µM]
CCN(C(=O)c1ccc(N2CC3CC(C2)c2cccc(=O)n2C3)c(NC(=O)c2ccncc2)c1)c1cccc(C)c1 (stereo unspecified)
 : 5.0%	-7.6	9.5%	0.8%	nt	0.7%	-1.8%
O=C(NCc1ccccc1)c1nncc(-c2ccccc2)n1
 : nt	-4.6	nt	-8.9%	nt	0.3%	-0.9%
O=S(=O)(CCN1CCN(c2ccccn2)CC1)c1ccc(F)cc1
 : 14.1%	2.9	6.1%[15.4 µM]	12.8%	-2.9	1.1%	1.3%
CCOC(=O)c1ccc(NC(=O)Cn2nnc(-c3ccccc3C)n2)cc1
 : 13.9%	1.9	2.0%	?	0.5	-2.3%	-1.1%
COc1ccc(CCNC(=O)C(=O)c2c(C)[nH]c3ccccc23)cc1
 : 7.3%	-7.7	-12.9%	2.5%	nt	-0.6%	-0.1%
CC(C)NC(=O)c1nn(C)c2ccccc12
 : 5.0%	-5.8	23.0%	3.9%	1.9	-20.7%	-1.4%
CC(C)Oc1ccc(S(=O)(=O)N2CCOCC2)cc1NC(=O)CSc1nnc(C2CC2)n1C
 : nt	-1.7	-18.5%	nt	nt	0.0%	1.5%
COc1ccc(C(=O)NNC(=O)Cc2ccc([N+](=O)[O-])cc2)cc1
 : 11.0%	-0.4	5.6%	10.9%	6.0	-6.9%	-1.8%
Fc1ccc(N2Cc3ccsc3C=N2)cc1
 : 18.6%	-1.5	1.4%	4.3%	0.2	nt	2.0%
O=C(C1=C[C@H](c2ccc(C(F)(F)F)cc2)C[C@H](OCCCCO)O1)N1CCOCC1
 : 7.4%	-2.1	-11.2%	14.1%	3.1	-0.1%	-0.6%
COc1ccc(CNC(=O)COC(=O)c2n[nH]c3ccccc23)cc1
 : 15.1%	-2.4	?	4.7%[15.4 µM]	3.4	-16.8%	-1.5%
COc1cc2c3nnc(-c4ccc(F)cc4)c-3cn(Cc3ccccc3)c2cc1OC
 : 4.5%	50.4*	5.7%	-2.3%	8.5	-9.6%	?
CC(=NNS(=O)(=O)c1ccc([N+](=O)[O-])cc1)c1ccc(C)cc1
 : nt	2.2	9.9%	-6.9%	nt	nt	5.4%
Cc1cccc(OCCCCCN2CCOCC2)c1
 : 20.6%	-3.2	-15.5%[15.4 µM]	5.1%	4.2	-0.5%	0.8%
Cc1cc(C(N)=O)c2ccccc2n1
 : 15.3%	2.4	-34.2%[inhibitor]	5.5%	0.3	-7.1%	nt
CCC1=Nc2cc(C(=O)NCCCN3CCN(C)CC3)ccc2Sc2ccccc21
 : -7.5%	-3.9	21.8%	-1.9%	-2.8	-0.2%	2.6%
CCN(CC)C(=O)CSc1nnc(-c2ccco2)n1N
 : 12.1%	-1.7	-16.7%	5.4%	0.1	1.4%	4.0%
CC(Sc1n[nH]c(=O)n1Cc1ccccc1)C(=O)NCC1CCCO1 (stereo unspecified)
 : nt	0.1	4.5%	7.9%	nt	-4.7%	0.4%
O=C(/C(=N\Nc1ccc([N+](=O)[O-])cc1)Sc1nnnn1-c1ccccc1)c1ccccc1
 : 6.0%	-8.3	-61.0%[inhibitor]	?	1.2	-2.5%	?
CCc1[nH]nc(C(=O)N2CCCC(CNS(=O)(=O)c3cccs3)C2)c1C (stereo unspecified)
 : 12.6%	-2.0	-3.7%	1.2%	-3.1	0.1%	0.3%
Nc1c(C(=O)c2ccccc2)sc(Nc2ccccc2)c1S(=O)(=O)c1ccccc1
 : 1.8%	-1.3	1.8%	-15.2%	-0.6	-13.7%	nt
O=C(CCCc1ccccc1)Nc1cccc([N+](=O)[O-])c1
 : -2.6%	-0.9	-26.4%	-7.5%	1.5	0.8%	0.3%
C/C(=N\NC(=O)c1ccc2c(c1)OCO2)c1cccnc1
 : 18.8%	-12.0	29.0%	5.1%	-1.9	1.5%	3.6%

# Source: PubChem BioAssay (National Center for Advancing Translational Sciences (NCATS))
